Screens from PubChem.
HIV TAR-Tat = HIV-1 TAR-Tat binding disruption; z-score (test concentration not listed); HIV-1 TAR RNA, Tat peptide displacement FRET; active compounds read high; 100,000 compounds, 0.6% hits;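 also: score is relative to mean and SD of negative controls; some compounds called inactive have numbers as strong as hits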
CDC25B-CDK2 inh = human CDC25B-CDK2/CyclinA binding inhibition; AID 1259370; P30305+P24941; HTRF CDC25B-CDK2/CyclinA binding, anti-His/anti-Flag; active compounds read high; z-score (no concentration beside the values); 94,000 compounds, 0.72% hits;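 also: score is relative to mean and SD of negative controls; strong numbers were not always called active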
* hit, by the source's call; · = no result given.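 The calls were made as follows: active = z-score from 3 up in half or more of its runs; inactive = the rest.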

compound | HIV TAR-Tat | CDC25B-CDK2 inh
CNC(=O)N1C(=O)C(=O)c2ccccc21 | -0.55 | -0.72
O=C(CN1c2ccc(Br)cc2-c2ccccc2S1(=O)=O)N1CCCC1 | -0.43 | -2
Cc1cccc(-n2ncc3c(N4CCN(c5nc(C)cc(C)n5)CC4)ncnc32)c1 | · | 6.3
CCC1CN(C(=O)NC2CCCC2)c2ccccc2O1 (configuration not stated) | 2.4 | ·
c1ccc(Cc2nc3ccc4[nH]snc4c3n2)cc1 | 1.8 | 1.9
CC(=O)N1CCC2(CC1)OC(=O)C(C)=C2C(=O)NCc1cccs1 | 0.47 | ·
CN(C)c1ccc(NS(=O)(=O)c2cc3c4c(c2)CC(=O)N4CCC3)cc1 | 2.4 | ·
CC(NC(=O)c1cc2sccc2n1C)c1ccc2c(c1)OCCO2 (configuration not stated) | 0.36 | 0.23
O=C(CSc1ccc(-c2ccncc2)nn1)N1CCc2ccccc21 | 1.1 | ·
CCOc1ccc2c(c1)C(=O)c1cc(OCC)ccc1-2 | -5 | 0.8
N/C(=N\OS(=O)(=O)c1ccc(C(F)(F)F)cc1)C1CSCCS1 (configuration not stated) | · | -0.97
Cc1nc(-c2cnccn2)ncc1S(=O)(=O)c1ccc(Cl)cc1 | · | -2.3
CCCCOC(=O)N1c2ccccc2NC(=O)CC1C (configuration not stated) | -1.2 | 0.68
COC(=O)c1ccc(CSc2ncccn2)cc1 | · | -1.8
C=CCc1c(C)nc(SC)nc1Nc1ccc(C(=O)O)cc1 | · | -1.1
CCC1(CC)Cc2ccccc2-c2nc(NCCCO)[nH]c(=O)c21 | -0.34 | -0.65
Cc1cc(NCc2ccc(Cl)cc2)n2cnnc2n1 | 0.39 | -0.29
CC1CCCN(C(=O)CSc2nc3ccccc3c(=O)[nH]2)C1 (configuration not stated) | 6 | ·
Cc1cccc(CSc2nc3c(c(=O)[nH]2)C(c2ccc(C)cc2C)CC(=O)N3)c1 (configuration not stated) | 1.5 | -1.9
CCOc1ccc(N(CC)S(=O)(=O)N2CCCC(C(=O)O)C2)cc1 (configuration not stated) | 0.82 | -0.39
CCOC(=O)C1C(=O)NC(N2CCN(c3ccccc3)CC2)=NC1c1ccco1 (configuration not stated) | -1 | -0.07
Cn1c(NCc2ccco2)nc2c1c(=O)n(Cc1ccc(Cl)cc1)c(=O)n2C | 0.6 | -1.9
CC(C)CCNc1ncnc2c1nc1n2CCCCC1 | 1.1 | ·
CCCSCCCNC(=O)c1cnn2c3c(cnc12)CCCCCC3 | 0.24 | ·
COc1ccc(NS(=O)(=O)c2ccc(-c3ccc(=O)[nH]n3)o2)cc1OC | 1.3 | ·
Clc1ccc(Nc2c(-c3ccsc3)nc3cnccn23)cc1 | -0.17 | -0.36
Cc1nnc2sc(-c3ccc(Cl)cc3)nn12 | 0.61 | -0.82
COc1ccc(-c2onc(C)c2C)cc1S(=O)(=O)N1CCN(C2CCCCC2)CC1 | 0.23 | ·
Cn1c(=O)c2c(nc(NCc3ccc4c(c3)OCO4)n2Cc2cccc3ccccc23)n(C)c1=O | · | -0.19
COc1ccc(C(=O)Cn2c3ccccc3n3nc(-c4ccccc4)nc23)cc1 | 0.41 | -1.5
COc1cc(C2CC(=O)N3CN(c4ccc(Br)cc4)CSC3=C2C#N)ccc1O (configuration not stated) | 25* | 0.91
O=C(O)CSC1CC(=O)N(c2ccc(Cl)cc2)C1=O (configuration not stated) | · | -2
Cc1c(C(=O)Nc2ccc(F)cc2F)nnn1-c1ccc(F)cc1 | -0.96 | -1
O=C(C1CCC(Cn2c(=S)[nH]c3ccsc3c2=O)CC1)N1CCCC1 (configuration not stated) | · | -1.8
COc1ccccc1N1CCN(c2ncnc3c2cnn3C)CC1 | 0.87 | ·
NCC1CCN(c2nccc(-c3ccc4ccccc4c3)n2)CC1 | -0.13 | ·
Cc1nc2sccn2c(=O)c1S(=O)(=O)N1CCOCC1 | 0.99 | -0.79
Cc1ccc(NC(=O)c2cc3c(=O)oc4ccc(C)cc4c3s2)nc1 | · | -2.1
COc1ccccc1-n1cc(-c2ccccc2)c2c(NC3CC3)ncnc21 | 0.54 | -0.48
C=CCOC(=O)C1=C(C)NC2=C(C(=O)CC(C)(C)C2)C1c1ccc(O)c(OC)c1 (configuration not stated) | 2.1 | -1.9
COc1ccccc1N1C(=O)c2ccc(-c3nc4ccccc4c(=O)o3)cc2C1=O | · | -1.3
CN1C(C(=O)NCC2CCCO2)=CC(c2cccs2)=NS1(=O)=O (configuration not stated) | 1.9 | -0.74
COC(=O)c1c(NC(=O)c2nc3ncccn3n2)sc2c1CCC2 | -1.2 | -2.2
O=C(OCc1cc2c(cc1[N+](=O)[O-])OCO2)C1c2ccccc2Oc2ccccc21 | · | -0.6
Cc1noc(/C=C/N(C)C)c1S(=O)(=O)NCCN1CCN(c2ccccc2F)CC1 | -0.3 | ·
Cn1cccc1C1C(C#N)=C(N)Oc2n[nH]c(-c3ccccc3)c21 (configuration not stated) | · | -1.5
Cc1sc2[nH]c(=O)n(-c3ccc(Cl)cc3)c(=O)c2c1C | -0.59 | -0.12
Cn1cc(S(=O)(=O)N2CCCC2)cc1C(=O)Nc1nccs1 | -0.05 | ·
CC1=C(c2ccc(C)cc2)S(=O)(=O)N=C1N1CCc2ccccc21 | 0.78 | -3
COc1cc2nc(-c3cccc(Br)c3)oc(=O)c2cc1OC | 1.8 | -0.53
Cc1noc(C)c1S(=O)(=O)NNC(=O)Nc1ccc(Cl)cc1 | · | -0.37
CCN1CCN(C(=O)c2sc3nc(C)cc(C)c3c2-n2cccc2)CC1 | -1.1 | 1.2
CS(=O)(=O)N(Cc1cc2ccccc2[nH]c1=O)C1CCCCC1 | 0.87 | -2.1
O=C(NCc1ccccn1)c1cnc2sc(N3CCCCC3)nn2c1=O | 1.8 | ·
c1nc(NCC2CCCO2)c2[nH]cnc2n1 (configuration not stated) | · | -0.06
Cc1sc2ncnc(Oc3ccc(Cl)cc3)c2c1C | 1.2 | -1.9

Other records follow:
compound | HIV TAR-Tat | CDC25B-CDK2 inh
Cn1c(=O)c2c(nc(N3CCOCC3)n2Cc2ccccc2Cl)n(C)c1=O | 1.2 | -0.26
CCc1c(C)nc2ncnn2c1NCc1ccc(F)cc1 | 1.4 | ·
Cc1nnsc1C(=O)Nc1ccc(-n2nc(C(F)(F)F)cc2-c2cccs2)cc1 | · | -0.24
O=C(NCC(c1cccs1)S(=O)(=O)c1ccccc1)c1ccco1 (configuration not stated) | 2.1 | ·
CCN(CC)CCNC(=O)C1CCCN(c2nn3c(=O)cc(C)nc3s2)C1 (configuration not stated) | 1 | 0.33
COc1ccc(C2C3=C(CCCC3=O)Nc3n[nH]c(-c4ccc(Cl)cc4)c32)cc1OC (configuration not stated) | 0.73 | ·
O=C(NCC1CCCO1)c1cccc(Nc2nc3ccccc3n3nnnc23)c1 (configuration not stated) | 0.77 | ·
CN1C(=O)c2ccccc2C(C(=O)NCc2cccs2)C1c1c[nH]c2ccccc12 (configuration not stated) | · | -2.4
COc1cc2c(cc1OC)C1CC(=O)N(Cc3ccco3)C(=O)N1CC2 (configuration not stated) | 0.98 | ·
C=CCN(C(=O)Cn1ncc2c([nH]c3ccccc32)c1=O)c1ccccc1 | 0.57 | ·
O=C(/C=C/Sc1nc2ccccc2o1)c1ccc(F)cc1 | · | -0.98
CSc1ccc(CCNS(=O)(=O)c2ccc3c(c2)NC(=O)C(C)CS3)cc1 (configuration not stated) | 1.9 | ·
CCOC(=O)N1CCN(c2c(N3CCN(c4ccccc4OC)CC3)c(=O)c2=O)CC1 | -0.55 | 0.5
CN1C(=O)C(C)(C)c2cc(S(=O)(=O)N(C)CC(=O)NCc3ccc4c(c3)OCO4)ccc21 | 0.57 | ·
Nc1[nH]nc2nc(N3CCOCC3)nc(-c3ccccc3)c12 | · | 0.15
CCCCOc1ccc(Nc2ncnc3ccccc23)cc1 | · | -1.1
O=C(Nc1ccc2c(c1)OCCO2)c1cnc(N2CCOCC2)nc1 | 0.81 | ·
Cc1ccc(-c2nc3nc(C)cc(Nc4ccccc4)n3n2)cc1 | 2.3 | -1.5
Cc1oc(-c2ccccc2F)nc1CSc1nc2ncccc2[nH]1 | 0.65 | ·
O=C(Nc1ccccc1)N1c2ccccc2CCc2ccccc21 | 0.71 | -1.3
O=C(CCCCCn1c(=O)[nH]c2ccsc2c1=O)N1CCN(c2ccc(F)cc2)CC1 | 0.42 | 1.1
COCCCNS(=O)(=O)c1ccc2c(c1)NC(=O)CS2 | 5.7 | ·
CCOC(=O)N/N=C(/CN1C(=O)c2ccccc2C1=O)c1ccc(C(F)(F)F)cc1 | · | -2
Cc1ccc(C(N)CCc2ccco2)cc1C (configuration not stated) | -6.2 | ·

Record cards, from the list above:
CCOC(=O)N/N=C(/CN1C(=O)c2ccccc2C1=O)c1ccc(C(F)(F)F)cc1 as listed: HIV TAR-Tat: ·; CDC25B-CDK2 inh: -2
COCCCNS(=O)(=O)c1ccc2c(c1)NC(=O)CS2 as listed: HIV TAR-Tat: 5.7; CDC25B-CDK2 inh: ·

Continuation.
compound | HIV TAR-Tat | CDC25B-CDK2 inh
Cc1ccccc1C1CC(=O)NC(SCc2ccccc2)=C1C#N (configuration not stated) | -0.36 | -1.3
O=C(CN1CCc2ccccc2C1)N1c2ccccc2CCc2ccccc21 | · | -0.03
O=c1c(N2CCN(c3ccc(F)cc3)CC2)csc2ccc(F)cc12 | 0.23 | ·
CSc1cccc(NS(=O)(=O)c2ccc(CN3C(=O)c4cccnc4C3=O)s2)c1 | 0.31 | ·
S=c1[nH]nc(C23CC4CC(CC(C4)C2)C3)n1CC1CCCO1 (configuration not stated) | · | -2.4
CC[C@@H](C(=O)[C@@H](C)[C@@H](O)[C@H](C)CCc1ccc(C)c(O)c1C(=O)O)C1O[C@](CC)(C2CC[C@](O)(CC)[C@H](C)O2)C[C@@H]1C (some centres not stated) | 2 | ·
O=C(CSc1nc(-c2ccco2)cc(C(F)(F)F)n1)N1CCc2ccccc2C1 | -0.26 | -1.2
Cc1ccc(C)c(OCc2cc(=O)n3cc(C)sc3n2)c1 | 1.4 | 0.55
CCOc1cc(C2C=C(C(=O)O)Nc3ncnn32)ccc1O (configuration not stated) | 3.9 | 0.07
CCc1nc2nc(C)cc(N3CCN(c4ccccc4F)CC3)n2n1 | 0.32 | ·
CCCc1nn2c(=O)cc(COc3ccccc3Cl)nc2s1 | -0.42 | -1.9
C=CCOC(=O)C1=C(C)Nc2nc(SCC=C)[nH]c(=O)c2C1c1cccc(OC)c1 (configuration not stated) | -0.77 | -0.81
O=C(Nc1ccc2c(c1)OCCO2)C(=O)c1cn(CC(=O)N2CCCCC2)c2ccccc12 | 0.75 | ·
Cc1ccc2c(c1)-c1cc(C)nn1C(c1cc(Br)ccc1O)N2 (configuration not stated) | -0.52 | -2.8
O=C(NCCCN1CCCC1=O)C1CCN(c2ncnc3c2nc2n3CCCCC2)CC1 | -2.1 | ·
Cn1c(=O)c(=O)n(C)c2cc(N3CCOCC3)c(NS(=O)(=O)c3ccc4c(c3)CCCC4)cc21 | 0.27 | ·

Given with two lines to a compound: part of the list above
Second line of a record: HIV TAR-Tat | CDC25B-CDK2 inh
> CN1C(=O)C(C)(C)c2cc(S(=O)(=O)N(C)CC(=O)NCc3ccc4c(c3)OCO4)ccc21
 : 0.57 | ·
> Nc1[nH]nc2nc(N3CCOCC3)nc(-c3ccccc3)c12
 : · | 0.15
> CCCCOc1ccc(Nc2ncnc3ccccc23)cc1
 : · | -1.1
> O=C(Nc1ccc2c(c1)OCCO2)c1cnc(N2CCOCC2)nc1
 : 0.81 | ·

(listing goes on)
compound | HIV TAR-Tat | CDC25B-CDK2 inh
COc1ccc(Br)cc1CNC(=O)Cn1nc(C)n2c(cc3occc32)c1=O | 1.1 | 12*
O=C(CSc1ccc2nnc(-c3ccc(F)cc3)n2n1)NC1CCCC1 | · | -2.3
Brc1ccc(C(c2nnc(-c3ccccc3)o2)N2CCN(c3ncccn3)CC2)cc1 (configuration not stated) | 0.29 | -0.34
CN(C)CCCNc1cc(N2CCN(c3ccccc3F)CC2)c2noc3c2c1C(=O)c1ccccc1-3 | 5* | 0.15
O=C(Cn1nnc(N2CCOCC2)n1)N/N=C/c1ccc(-c2cccc([N+](=O)[O-])c2)o1 | · | -0.37
Cc1cc(-c2ccc(S(=O)(=O)NC(C)Cc3ccco3)s2)on1 (configuration not stated) | 0.16 | ·
Brc1csc(C2SCCS2)c1 | · | -0.96
CCc1ccc(CNc2ncnc3onc(C)c23)cc1 | 0.12 | ·
CC1(C)CCC[C@]2(C)[C@H]3CC(=O)O[C@]3(C)CC[C@@H]12 | 0.55 | ·
COc1cc(OC)c(C2C(C#N)=C(N)OC3=C2C(=O)CC(C)(C)C3)c(OC)c1 (configuration not stated) | · | -1.7
COc1ccccc1-c1nn2c(C(F)(F)F)nnc2s1 | 1.1 | -1.4
COc1cccc(N2C(=O)C3C(c4ccc(Cl)cc4)OC4(C(=O)c5ccccc5C4=O)C3C2=O)c1 (configuration not stated) | · | -2.7
CCc1ccc(S(=O)(=O)Nc2cc3c(cc2C)n(C)c(=O)n3C)cc1 | 0.16 | ·
N#Cc1ccc(N2CCSCC2)cc1[N+](=O)[O-] | · | -2.6
C=CCSc1nnc(NC(=O)c2cc(-c3ccccc3)on2)s1 | 0.16 | -3.9
CCCCCCSC1=C(C#N)C(c2ccc(F)cc2)CC(=O)N1 (configuration not stated) | 1.4 | -1.9
C[C@@H]1O[C@@H](O[C@H]2[C@@H](Oc3cc(O)c4c(c3)O[C@H](c3ccc(O)cc3)CC4=O)O[C@H](CO)[C@@H](O)[C@@H]2O)[C@H](O)[C@H](O)[C@H]1O | 2.1 | ·
Cc1onc(-c2c(Cl)cccc2Cl)c1C(=O)OCCOc1ccc([N+](=O)[O-])cc1[N+](=O)[O-] | · | -1.7
CN(Cc1ccccc1)C(=O)Cn1nc(-c2ccco2)ccc1=O | 0.47 | ·
